Mtb betalactam: beta-lactam sensitization of Mtb H37Rv; 0.27% of 330,000 active; M. tuberculosis H37Rv growth with meropenem, percent inhibition; hits of this screen are not shown here; inhibition, % at 25 µM; AID 434955;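 active means about 74% or more and at least 40 points above the plate without the antibiotic, then above 30% in a dose series; inconclusive means first-round hits that could not be retested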;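 further: growth measured after seven days incubation then overnight dye step; 0% = bacteria only wells and 100% = bacteria with antibiotic; twin plates without the antibiotic show which effects depend on it; some results filed as inactive read as strong as hits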
YopH PTP inh: inhibitors of Yersinia enterocolitica YopH tyrosine phosphatase. 0.16% of 140,000 active. inhibition, %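 (about 10 µM by stock and volumes)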. fluorescence Ex485/Em525;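 active means inhibition of 50% or more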;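 further: controls were vehicle for no effect and minimum signal wells for full effect; inactives centre near -20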
RecA intein inh: inhibitors of M. tuberculosis RecA intein splicing; inhibition, %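 (about 9 µM by stock and volumes)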; cell-free RecA intein splicing, fluorescence; P9WHJ3; AID 2221; 0.75% of 290,000 active; in the data active means inhibition above about 30%; inconclusive means no clear call, values can overlap the other calls;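 further: 0% = vehicle wells and 100% = reference inhibitor control wells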
Target sequence (P9WHJ3 whole entry, looked up): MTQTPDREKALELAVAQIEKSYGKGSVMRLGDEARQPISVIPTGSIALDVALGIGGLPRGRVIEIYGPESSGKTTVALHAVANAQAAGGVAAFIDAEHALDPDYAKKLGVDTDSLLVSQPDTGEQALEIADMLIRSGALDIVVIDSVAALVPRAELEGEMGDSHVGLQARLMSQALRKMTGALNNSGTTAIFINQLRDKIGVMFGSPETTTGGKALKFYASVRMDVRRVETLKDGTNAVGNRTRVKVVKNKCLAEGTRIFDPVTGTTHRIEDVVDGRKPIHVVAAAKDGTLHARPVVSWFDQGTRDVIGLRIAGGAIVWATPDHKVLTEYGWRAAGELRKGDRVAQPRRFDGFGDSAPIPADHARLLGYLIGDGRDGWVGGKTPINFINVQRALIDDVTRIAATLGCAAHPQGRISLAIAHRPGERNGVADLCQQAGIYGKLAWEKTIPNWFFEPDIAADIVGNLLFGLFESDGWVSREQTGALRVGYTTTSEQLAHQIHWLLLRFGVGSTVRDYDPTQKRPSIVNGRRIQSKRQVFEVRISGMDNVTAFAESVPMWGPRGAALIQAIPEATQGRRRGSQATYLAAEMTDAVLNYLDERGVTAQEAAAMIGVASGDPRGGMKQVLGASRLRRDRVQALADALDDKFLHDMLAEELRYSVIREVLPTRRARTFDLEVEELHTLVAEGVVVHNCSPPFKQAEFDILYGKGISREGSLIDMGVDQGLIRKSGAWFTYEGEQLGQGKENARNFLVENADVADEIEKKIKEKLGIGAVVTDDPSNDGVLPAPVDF
Mtb H37Rv: M. tuberculosis H37Rv growth inhibitors, H37Rv strain (AID 1626); M. tuberculosis H37Rv growth inhibition; higher % means a stronger effect; one-dose inhibition, % at 10 µM; IC50 in µM for titrated hits; 0.95% of 220,000 active;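 active means confirmed in a dose series; inconclusive means inhibition above 80% but not taken into the dose series; inactive means below 80% or under 30% at every dose of the series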;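 further: bacteria incubated seven days before Alamar blue readout; 0% = bacteria only wells and 100% = bacteria with antibiotic wells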
Arbovirus anti: arbovirus infection inhibition; arbovirus infection cell-based antiviral screen; 0.37% of 200,000 active; inhibition, % at 10 µM; AID 1251;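 active means inhibition from about 30%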;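 further: bluetongue infection of BSR cells; cell survival read as ATP light after 72 h; 0% = infected wells without compound and 100% = uninfected wells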
Arbovirus anti repeat: further read-out of Arbovirus anti, marked with its call; inhibition, %; measured here: 10K subset replicate screen; many hits read low in the repeat;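 first of two repeat runs on a subset; 0% = infected and 100% = uninfected wells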
* hit, by the source's call; ? = inconclusive; / = not tested or not shown. A portion of the library (hit frequency here may not be typical).

The opening 2 records, ahead of the listing:
SMILES	Mtb betalactam	YopH PTP inh	RecA intein inh	Mtb H37Rv	Arbovirus anti	others
c1ccc(NC2=NCCCCS2)cc1	-1	15	-3.1	-6%	-1
CCCCn1c(-c2ccccc2)nc2c(=O)n(C)c(=O)[nH]c21	-10	-1	1.7	5%	6

This part in full, previewed entries included:
SMILES	Mtb betalactam	YopH PTP inh	RecA intein inh	Mtb H37Rv	Arbovirus anti	others
c1ccc(NC2=NCCCCS2)cc1	-1	15	-3.1	-6%	-1
CCCCn1c(-c2ccccc2)nc2c(=O)n(C)c(=O)[nH]c21	-10	-1	1.7	5%	6
O=C(NC1CCC(c2ccccc2)CC1)c1cccnc1 (stereo not drawn)	-4	/	12	-1%	7
CN(C)CCCN(C(=O)c1ccc2c(c1)OCCO2)c1nc2ccc(Cl)cc2s1	6	/	2.4	/	/
Cc1cc(C(=O)O)ccc1-c1ccc(/C=C2\SC(=O)N(CC(=O)Nc3ccc4c(c3)OCO4)C2=O)o1	-2	/	-23	/	/
Cc1cccc(NC(=O)CN2C(=O)N/C(=C/c3ccc(C)o3)C2=O)c1	0	-3	-1.3	1%	-2
CCOCCn1c(SCC(=O)OCc2ccccc2)nc2c1c(=O)[nH]c(=O)n2C	3	/	1.0	1%	4	Arbovirus anti repeat=-3
O=C1Nc2cc(C(=O)N3CCN(c4ccccn4)CC3)ccc2S/C1=C\c1ccccc1	84	/	0.9	/	/
COc1ccc(N(CC(=O)NCCC2=CCCCC2)S(=O)(=O)c2ccccc2)c(OC)c1	0	/	4.1	2%	14
CS(=O)(=O)Nc1nc2n(n1)C(c1ccccc1)CC(c1ccccc1)N2 (stereo not drawn)	-11	/	-1.0	1%	/
Cc1nn(C(=O)c2c(-c3ccccc3)noc2C)c(C)c1N=Nc1cc(C(F)(F)F)cc(C(F)(F)F)c1	1	/	8.5	4%	/
COc1cc(OC)cc(C(=O)OCC(=O)NCc2ccc3c(c2)OCO3)c1	-4	/	-2.6	-1%	-4
COc1cccc(NC(=O)CSC(N)=O)c1	6	-29	-8.4	3%	-5
COc1ccc(CN2CCCC(CNC(=O)c3ccc(F)cc3)C2)c(C)c1C (stereo not drawn)	2	/	2.0	-5%	-18
CCNC(=O)COC(=O)Cc1ccc(Cl)cc1Cl	-4	/	/	6%	2
O=C(/C=N\O)NCCCNCc1ccccc1	1	-52	-3.4	-6%	-1
O=C(Nc1c(F)cc(F)cc1Br)c1ccco1	3	-18	-0.1	0%	9
O=CN/C=C/c1cc(O)ccc1O	-2	/	/	0%	/
Cc1ccc(C2=NN(CCC(=O)N3CCC4(CC3)OCCO4)C(=O)CC2)cc1	-7	/	-1.9	6%	2
CCOc1ccccc1N1CCN(CC(=O)NC(C)c2ccccc2)CC1 (stereo not drawn)	-2	/	1.0	/	/
COC(=O)c1[nH]c2cccc(OC)c2c1NC(=O)CCN1CCC(C(N)=O)CC1	-1	-35	/	-4%	4
CSc1ccc(/C=C/C(=O)N2CCCN(C)CC2)cc1	3	/	-1.7	-7%	0
CN=c1sc2ccccc2n1CC(O)COCc1ccco1 (stereo not drawn)	-8	0	0.1	5%	-3
COc1ccc(/C=C2\CC/C(=C\c3ccc(OC)c(OC)c3)C2=O)cc1OC	98	-39	1.7	7%	-2
CC12CCC(C(=O)NCc3ccc4c(c3)OCO4)(C(=O)C1=O)C2(C)C (stereo not drawn)	1	-9	-1.7	3%	-7

New compounds follow:
SMILES	Mtb betalactam	YopH PTP inh	RecA intein inh	Mtb H37Rv	Arbovirus anti	others
COc1ccc(NC(=O)CCN2CCN(c3ccccc3F)CC2)c(OC)c1	-8	/	-0.4	/	/
O=C(Nc1cc(N2CCOCC2)ncn1)c1ccc(F)cc1	4	/	2.8	6%	0
CC(=O)c1cccc(NC(=O)N2CCCCCC2)c1	-2	/	0.2	/	/
CCCOc1ccc(/C=N/NC(=O)c2ccc3c(c2)OCO3)c(OCCC)c1	-3	/	-0.1	/	/
CCOc1c(/C=C(\C#N)C(N)=O)c2ccccc2n1CC	2	-21	4.1	-4%	-20
CC(C)[C@H](NC(=O)OC(C)(C)C)C(=O)N1CCC(C(=O)N[C@@H](C)C(=O)Nc2ccc(F)cc2)CC1	?	/	-2.7	/	/
COc1ccc(CCNC(=O)c2cccnc2Cl)cc1OC	-3	/	0.1	/	/
Cc1c(NC(=S)NC(=O)c2ccc(Cl)cc2)c(=O)n(-c2ccccc2)n1C	-9	/	1.4	/	/
COc1cccc(N2C(=O)CC(Sc3nc(C)cc(C)n3)C2=O)c1 (stereo not drawn)	-5	/	-0.4	/	/
O=C(CNC(=O)c1ccco1)OCC(=O)c1ccc2c(c1)CCCC2	8	-46	4.6	1%	0
Cc1cc(C)c2nc(NC(=O)c3cc(C)on3)sc2c1	1	6	2.0	-8%	10
Cc1ccc(CNC(=O)c2cccnc2)cc1	3	/	1.8	/	/
O=S(=O)(Cc1ccccc1)/C1=C(\N2CCOCC2)CCCCCC1	4	-33	-0.5	-9%	1
CC(C)CC(=O)N1CC(C)N(C(=O)CC(C)C)CC1C (stereo not drawn)	8	-25	-5.5	-2%	0
CCOC(=O)CC1=CSC2=NS(=O)(=O)CCN12	-5	-4	-1.8	-10%	-7
CCN1CCN(C(c2ccccn2)c2c(NC(=O)c3ccccc3)sc(C)c2C)CC1 (stereo not drawn)	2	-17	1.4	-8%	-28
COc1cc(NS(=O)(=O)c2ccc(NC(=O)Cc3ccccc3)cc2)nc(OC)n1	-5	/	1.7	/	/
CN1CCN(CCCC(=O)c2ccc(C3CCCC3)cc2)CC1	5	-19	1.3	4%	-35
COc1cccc(OCCCCCN2CCOCC2)c1	3	-4	0.2	-2%	-3
COC(=O)NCC(c1ccco1)N1CCN(c2ccc(F)cc2)CC1 (stereo not drawn)	-6	-25	1.1	5%	6
Cc1ccc2nc(SCC(=O)N3CCCC3)[nH]c2c1	-4	10	-6.7	3%	4
CCc1ccc(NC(=O)CSc2nc3nc(C)cc(C)n3n2)cc1	3	/	0.8	/	/
Cc1cccc(C)c1NC(=O)CSc1nc(COc2ccccc2)nc2ccccc12	-6	5	/	0%	4
CC(=O)C1=C(O)C(=O)N(CCNCCO)C1c1ccccc1 (stereo not drawn)	4	-50	-0.8	/	1
O=c1c2ccccc2ncn1CCOc1ccccc1[N+](=O)[O-]	2	/	9.0	-2%	-1

Of the compounds above, 4 contain a Cl atom.
SMILES	Mtb betalactam	YopH PTP inh	RecA intein inh	Mtb H37Rv	Arbovirus anti	others
CN(C)CCCN(C(=O)c1ccc2c(c1)OCCO2)c1nc2ccc(Cl)cc2s1	6	/	2.4	/	/
CCNC(=O)COC(=O)Cc1ccc(Cl)cc1Cl	-4	/	/	6%	2
COc1ccc(CCNC(=O)c2cccnc2Cl)cc1OC	-3	/	0.1	/	/
Cc1c(NC(=S)NC(=O)c2ccc(Cl)cc2)c(=O)n(-c2ccccc2)n1C	-9	/	1.4	/	/

The listing continues:
SMILES	Mtb betalactam	YopH PTP inh	RecA intein inh	Mtb H37Rv	Arbovirus anti	others
Cn1c(/C(C#N)=C(\O)CN2CCN(Cc3ccccc3)CC2)nc2ccccc21	83	3	3.8	8%	-7
ON1C(c2ccccc2)CC2(O)c3nonc3CCC12 (stereo not drawn)	-5	-34	-9.8	-10%	0
CCc1ccc(OCCOCC(O)CNC(C)CC)cc1 (stereo not drawn)	-5	0	-1.4	2%	0
O=C1CC(NS(=O)(=O)c2cccs2)CN1c1cccc(F)c1 (stereo not drawn)	-7	/	-1.3	/	/
CCn1c(NC(C)=O)c(-c2ccccc2Cl)c(=O)c2ccccc21	-4	/	-3.2	/	/
O=[N+]([O-])c1ccc(S(=O)(=O)Nc2nnc(C(F)(F)F)s2)cc1	-10	/	-2.6	/	/
C#CCOC(=O)CCC(=O)NCCc1ccccc1	37	7	2.9	-1%	3
Clc1ccccc1CN1CCNCC1	-3	/	2.2	/	/
CC1CCN(C(=O)c2ccccc2NC(=O)Cc2ccccc2)CC1	0	/	1.0	/	/
O=C(Cn1nnc(-c2ccc(CN3CCOCC3)cc2)n1)Nc1nc(-c2ccccc2)cs1	2	-42	-2.1	7%	2
CC(=O)c1csc(COc2ccc(Cl)cc2)n1	-4	/	-4.0	-5%	/
Cc1ccc(S(=O)(=O)NC2CC(C)(C)NC(C)(C)C2)cc1	-8	/	0.2	/	/
Cc1cc(N/N=C/c2ccncc2)c([N+](=O)[O-])cc1[N+](=O)[O-]	-1	/	1.1	-7%	/
Fc1ccc(-c2csc(N3CCOCC3)n2)cc1	2	/	0.7	15%	/
CCc1ccc(NC(=S)NCc2ccccc2)cc1	-5	/	0.4	4%	12
Cc1cc(C)c(-n2nnnc2SCC(=O)c2cc3ccccc3o2)c(C)c1	6	/	-0.5	-6%	/
COc1cccc(NC(=O)COc2c(F)c(F)c(C(F)(F)F)c(F)c2F)c1	-2	-20	2.1	3%	1
COc1ccc(CNC(=O)CN(CC2CCCO2)C(=O)CNS(=O)(=O)c2ccc(F)cc2)cc1 (stereo not drawn)	/	-22	1.1	-1%	-3
Cc1ccc(NC(=O)c2ccc3c(c2)N(CC(=O)N2CCCCC2)C(=O)C(C)(C)O3)cc1	-4	-34	0.4	-2%	-2
Cc1cc2nc3n(c2cc1C)CC1CC(C(=O)NCc2ccco2)N(C)C31 (stereo not drawn)	0	/	-2.3	-6%	/
NC(=O)c1c(NC(=O)c2cccnc2)sc2c1CCCC2	-5	/	-7.0	2%	0
C[N+](C)(C)CCOc1ccc([N+](=O)[O-])cc1	2	/	0.8	-7%	5
CCCC1CC(CCc2ccccc2)OS(=O)(=O)N1 (stereo not drawn)	-6	/	0.5	/	/
Cc1cc(C)n2nc(CCCO)nc2n1	1	/	0.2	-3%	8
Cc1cc(NC(=O)C(C)SCC(=O)N(Cc2ccccc2)c2ccccc2)no1 (stereo not drawn)	-14	/	3.6	/	/

Next part:
SMILES	Mtb betalactam	YopH PTP inh	RecA intein inh	Mtb H37Rv	Arbovirus anti	others
CCO/C(C)=C1/SC(=S)NC1=O	6	/	-6.6	3%	/
COc1ccc(NC(=O)CN(C)C(=O)c2ccc(N3CCCCC3)c([N+](=O)[O-])c2)cc1	-8	/	-4.6	/	/
Cc1ccc(Nc2c([N+](=O)[O-])c(=O)n(C)c3ccccc23)cc1	-1	/	-1.9	-1%	-15
COc1ccccc1NC(=O)C1=C(C)Nc2nc(CCCO)nn2C1c1cccnc1 (stereo not drawn)	-11	35	22	-17%	0
Cc1cc(C(=O)NNC(=O)c2ccc(S(=O)(=O)N(C)C)cc2)c(C)o1	-2	-30	-0.7	-8%	5
Cc1cccc(NC(=O)CCNC(=O)c2ccco2)c1C	8	/	-1.4	-5%	-3
CSCc1ccc(C(=O)NC(C)c2cnn(-c3ccccn3)c2C)o1 (stereo not drawn)	3	/	2.1	/	/
CC(C)c1nnc(NC(=O)C2CCN(C(=O)Nc3ccc(Cl)cc3)CC2)s1	17	/	-1.1	/	/
CCN(CC)S(=O)(=O)c1ccc(Cl)c(NC(=O)CSc2cccc[n+]2[O-])c1	-5	/	1.2	-5%	/
COc1ccccc1C(=O)N/C(=C/c1ccc(Br)cc1)C(=O)NCC(=O)O	-1	-30	0.7	4%	3
COc1ccc(Oc2c(Cl)cnn(-c3ccc(Cl)c(Cl)c3)c2=O)cc1	8	-12	4.8	9%	5
COc1ccc(-c2noc(N3CCCC(C(=O)Nc4ccccc4F)C3)n2)cc1 (stereo not drawn)	-1	/	-4.2	/	/
CC(=O)c1ccc(OC(=O)CCc2ccccc2)cc1	4	/	19	/	/
Cn1ccnc1Sc1ccc(C(N)=O)cc1[N+](=O)[O-]	-6	/	0.3	2%	5
NC(=O)c1ccc(SCC(=O)OCC(=O)N2CCCCC2)c([N+](=O)[O-])c1	2	/	-2.5	/	/
Cc1cc(=O)[nH]c(SCc2nnc(-c3ccccc3)o2)n1	-7	-28	2.3	-3%	10
COc1ccc(CCNC(=O)Cc2cc(OCc3ccccc3)c(OC)cc2[N+](=O)[O-])cc1OC	0	-39	-1.2	4%	4
CC(=O)Nc1ccc(S(=O)(=O)Nc2cccc(-n3cnnn3)c2)cc1	2	/	-3.4	/	/
COCCn1c(SCC(=O)N2CCCc3ccccc32)nc2cccnc21	95	-38	0.6	8%	-3
COc1ccccc1/C=C/CN1CCC(Oc2ccc(C(=O)N3CCCCC3)cc2)CC1	62	/	5.4	/	/

Structural class: the compounds so far containing bromine (2)
SMILES	Mtb betalactam	YopH PTP inh	RecA intein inh	Mtb H37Rv	Arbovirus anti	others
O=C(Nc1c(F)cc(F)cc1Br)c1ccco1	3	-18	-0.1	0%	9
COc1ccccc1C(=O)N/C(=C/c1ccc(Br)cc1)C(=O)NCC(=O)O	-1	-30	0.7	4%	3

Compound activity: PubChem BioAssay, several laboratories
